Screening data from PubChem BioAssay.
Lassa entry – qHTS for Inhibitors of binding or entry into cells for Lassa Virus. hit rate 4.1% among 18,000. Potency, µM (doses to about 49.2 µM), inactives show at the highest dose activity change, negative = inhibition, usual class: inhibitors. Lassa virus pseudotyped entry inhibition, cell-based qHTS; control for the full effect not named in the record; many of its hits are not listed in these tables; active = well fitted inhibition curve with a large enough effect; inconclusive = small, poorly fitted or top-dose-only effect; inactive = no such curve, though single readings can be large or run the other way; tested in HEK293 cells; also: luciferase read-out
MARV entry inh – qHTS for Inhibitors of binding or entry into cells for Marburg Virus. AID 720532, 2013. Potency, µM (doses to about 49.2 µM), without a hit: at the top dose activity change, negative = inhibition, actives largely listed as inhibitors. hit rate 6.5% among 18,000. Marburg virus pseudotype entry/binding inhibition, cell-based; control for the full effect not named in the record; many of its hits are not listed in these tables; active means well fitted inhibition curve with a large enough effect; inconclusive means small, poorly fitted or top-dose-only effect; inactive means no such curve, though single readings can be large or run the other way; tested in HEK293 cells; also: luciferase read-out
* = called active by the depositor; u = inconclusive; x = not tested or not shown; & = joins results of further samples; ! = a repeat was not active; [ ] = another dose, or the depositor's remark. % is scaled to controls: 0 for no effect and ±100 for the full control effect; potency is read from the fitted curve at half-maximal effect. An excerpt; the hit share may differ from the screen's.

1: COC1=C[C@H](C(=O)NCCOC(C)=O)[C@@]2(C)Cc3ccccc3[C@@H]2CC1=O
2: Cc1ccc(-c2ccc(CN3C(CC(C)C)C(=O)N(Cc4cn(CCC5OCCO5)nn4)CCS3(=O)=O)cc2)cc1 (configuration not stated)
3: CC(Cc1ccccc1)NCc1ccccc1Cl (configuration not stated)
4: COP(=S)(OC)Oc1nc(Cl)c(Cl)cc1Cl
5: CC(=O)c1ccc(-c2c(C)cc3oc(=O)cc(-c4ccccc4)c3c2C)cc1
6: O=C(c1cccs1)N1C[C@H](n2cc(C3CC3)nn2)[C@H](O)C[C@@H]1c1ccccc1

Screen / compound no.	1	2	3	4	5	6
Lassa entry	-15%[8.59 µM]	-1%	-2%	0%	u	9%
MARV entry inh	-10%[8.59 µM]	u	3%	9%	-18%	14%

7: COc1ccc(NC(=O)C[C@H]2C(=O)N(c3ccc(Br)cc3)C[C@@H]2CSC)cc1
8: Cc1nc2ccc(C(=O)N3CCc4c(cnc(C)c4CNC(=O)/C=C/c4cccs4)C3)cc2nc1C
9: COc1ccc2cccc(N3CCN(CCNC(=O)c4ccc(F)cc4)CC3)c2c1
10: COc1ccccc1-c1nc(NCCNC(C)=O)c2ccccc2n1
11: COc1ccc2c(=O)c(OC)c(-c3ccccc3)oc2c1
12: CN(CCO)C(=O)c1cn(C2CCN(Cc3cccc4ccccc34)CC2)nn1

Screen / compound no.	7	8	9	10	11	12
Lassa entry	-29%	-10%	u	1%	u	1%
MARV entry inh	u	-21%	u	-9%	-20%	9%

13: COc1ccc([C@H]2C[C@H](O)[C@@H](n3cc(COC(=O)c4ccccc4)nn3)CN2Cc2cccs2)cc1
14: C[C@@H]1C[C@H](OC(=O)c2ccccc2O)CC(C)(C)C1
15: C=CC[C@](C)(O)c1ccccc1
16: COc1ccc(O)c(CN2CCCN(c3nc(C)c4cc(C)c(C)cc4n3)CC2)c1
17: CC(C)OC(=O)C(C(=O)OC(C)C)=C1SC=CS1
18: CNc1ccc(-c2nc3ccccc3s2)cc1

Screen / compound no.	13	14	15	16	17	18
Lassa entry	x	-4%[17.8 µM]	0.75µM*!	6%	-3%	10µM*
MARV entry inh	u	3%[17.8 µM]	-15%	31%[activator]	1%	7.1µM*

19: CC[C@H](C)[C@H](NC(=O)[C@H](Cc1ccc(O)cc1)NC(=O)[C@@H]1CCCN1C(=O)[C@H](CCCN=C(N)N)NC(=O)[C@H](CCCN=C(N)N)NC(=O)[C@@H]1CCCN1C(=O)[C@H](CCCCN)NC(=O)[C@H](CC(N)=O)NC(=O)[C@H](CCC(N)=O)NC(=O)[C@H](Cc1ccc(O)cc1)NC(=O)[C@H](CC(C)C)NC(=O)[C@@H]1CCC(=O)N1)C(=O)N[C@@H](CC(C)C)C(=O)O
20: CCCCC[C@H](O)/C=C/C=C\CCCCCCCCCC(=O)O
21: NC[C@H]1O[C@H](O[C@H]2[C@H](O)[C@@H](O[C@H]3O[C@H](CO)[C@@H](O)[C@H](N)[C@H]3O)[C@H](N)C[C@@H]2N)[C@H](N)[C@@H](O)[C@@H]1O
22: CNC(=O)C[C@H]1C(=O)N(Cc2ccccc2)C[C@@H]1C
23: CN(C)CCC(O)(c1ccccc1)c1ccccc1Cl (configuration not stated)
24: N#CCCCSc1nnnn1-c1cc(C(F)(F)F)cc(C(F)(F)F)c1

Screen / compound no.	19	20	21	22	23	24
Lassa entry	3%	-6%	u	24%	-24%	5%
MARV entry inh	2%	-7%	u	24%	-28%	-18%

25: C[C@@H](C(=O)O)c1ccc(N2Cc3ccccc3C2=O)cc1
26: Cc1cccc(CNC(=O)c2cnn(-c3ncc4c(n3)-c3ccccc3CC4)c2C2CC2)n1
27: COc1cccc([C@H]2Oc3ccc(OC)cc3C(=NO[C@@H](C)CN3CCCCc4nc(C)c(C)cc43)[C@H]2O)c1
28: CC[C@H](C)[C@H](NC(=O)[C@H](CCC(=O)O)NC(=O)[C@H](CO)NC(=O)[C@@H](NC(=O)[C@@H](N)CO)C(C)C)C(=O)N[C@@H](CCC(N)=O)C(=O)N[C@@H](CC(C)C)C(=O)N[C@@H](CCSC)C(=O)N[C@@H](Cc1cnc[nH]1)C(=O)N[C@@H](CC(N)=O)C(=O)N[C@@H](CC(C)C)C(=O)NCC(=O)N[C@@H](CCCCN)C(=O)N[C@@H](Cc1cnc[nH]1)C(=O)N[C@@H](CC(C)C)C(=O)N[C@@H](CC(N)=O)C(=O)N[C@@H](CO)C(=O)N[C@@H](CCSC)C(=O)N[C@@H](CCC(=O)O)C(=O)N[C@@H](CCCNC(=N)N)C(=O)N[C@H](C(=O)N[C@@H](CCC(=O)O)C(=O)N[C@@H](Cc1c[nH]c2ccccc12)C(=O)N[C@@H](CC(C)C)C(=O)N[C@@H](CCCNC(=N)N)C(=O)N[C@@H](CCCCN)C(=O)N[C@@H](CCCCN)C(=O)N[C@@H](CC(C)C)C(=O)N[C@@H](CCC(N)=O)C(=O)N[C@@H](CC(=O)O)C(=O)N[C@H](C(=O)N[C@@H](Cc1cnc[nH]1)C(=O)N[C@@H](CC(N)=O)C(=O)N[C@@H](Cc1ccccc1)C(=O)N[C@H](C(=O)N[C@@H](C)C(=O)N[C@@H](CC(C)C)C(=O)NCC(=O)O)C(C)C)C(C)C)C(C)C
29: COc1ccc(CN2CCOc3ccc(CN4CCC(Oc5cccnc5)CC4)cc3C2)cc1
30: N=C(N)N

Screen / compound no.	25	26	27	28	29	30
Lassa entry	-1%[17.8 µM]	6%	-16%[8.59 µM]	-12%	-14%	3%
MARV entry inh	-23%[17.8 µM]	-2%	-17%[8.59 µM]	6%	u	9%

Records 29–30, quoted:
29: COc1ccc(CN2CCOc3ccc(CN4CCC(Oc5cccnc5)CC4)cc3C2)cc1
30: N=C(N)N

Screen / compound no.	29	30
Lassa entry	-14%	3%
MARV entry inh	u	9%

Additional structures:
31: CCC(NC(C)C)C(O)c1ccc(O)c(O)c1 (configuration not stated)
32: COc1ccc([C@H]2C[C@@H](n3cc(C4CC4)nn3)[C@H](O)CN2Cc2cccs2)cc1
33: COc1cccc(C(=O)NC(C)c2nnc3n2CCN(CC=C(C)C)CC3)c1 (configuration not stated)
34: CC/C=C\C/C=C\C/C=C\C/C=C\C/C=C\CCCC(=O)NCCO
35: CC1(C)CC[C@]2(C(=O)O)C(O)C[C@@]3(C)C(=CCC4[C@@]5(C)CCC(O)C(C)(C)C5CC[C@@]43C)C2C1 (some centres not stated)
36: COc1ccc2c(c1)[C@@H](NC(=O)C(F)(F)F)[C@@H]1CCCC[C@]21c1ccccc1

Screen / compound no.	31	32	33	34	35	36
Lassa entry	7%[17.8 µM]	x	2%	1%	-3%	-4%[8.59 µM]
MARV entry inh	-19%	-19%	21%	10%	0%	56%[activator][8.59 µM]

37: CC1(C)CC(=O)C2=C(C1)O[C@@]1(CCCCN3C(=O)c4ccccc4C3=O)Cc3ccccc3[C@H]2O1
38: CC(C)Cc1ccc([C@@H](C)C(=O)NS(C)(=O)=O)cc1
39: OC1C(O)C(O)C(O)C(O)C1O (configuration not stated)
40: C=CCSC[C@@H]1Nc2cc(Cl)c(S(N)(=O)=O)cc2S(=O)(=O)N1
41: CNc1nc(Cl)nc2c1ncn2CC(COC(=O)C(C)(C)C)COC(=O)C(C)(C)C
42: CC(=O)c1ccc(-c2cccc(-c3cc(=O)oc4ccc(C(C)(C)C)cc34)c2)cc1

Screen / compound no.	37	38	39	40	41	42
Lassa entry	-15%[8.59 µM]	-2%	1%	9%[17.8 µM]	-23%	-17%
MARV entry inh	11%[8.59 µM]	7%	2%	2%[17.8 µM]	2%	4%

43: COc1ccccc1CC(=N)N1C[C@@H]2C(=O)CCC(c3ccccc3)(c3ccccc3)[C@@H]2C1
44: CC(C)C[C@H](NC(=O)CNC(=O)[C@H](C)NC(=O)[C@H](CC(C)C)NC(=O)[C@H](CCCNC(=N)N)NC(=O)[C@H](Cc1cnc[nH]1)NC(=O)[C@@H](NC(=O)[C@@H](NC(=O)[C@@H]1CSSC[C@H](NC(=O)[C@@H](N)CO)C(=O)N[C@@H](CC(N)=O)C(=O)N[C@@H]([C@@H](C)O)C(=O)N[C@@H](C)C(=O)N[C@@H]([C@@H](C)O)C(=O)N1)C(C)C)[C@@H](C)O)C(=O)N[C@@H](CC(C)C)C(=O)N[C@@H](CO)C(=O)N[C@@H](CCCNC(=N)N)C(=O)N[C@@H](CO)C(=O)NCC(=O)NCC(=O)N[C@H](C(=O)N[C@H](C(=O)N[C@@H](CCCCN)C(=O)N[C@@H](CC(=O)O)C(=O)N[C@@H](CC(N)=O)C(=O)N[C@@H](Cc1ccccc1)C(=O)N[C@H](C(=O)N1CCC[C@H]1C(=O)N[C@H](C(=O)N[C@@H](CC(N)=O)C(=O)N[C@H](C(=O)NCC(=O)N[C@@H](CO)C(=O)N[C@@H](CCCCN)C(=O)N[C@@H](C)C(=O)N[C@@H](Cc1ccccc1)C(N)=O)C(C)C)[C@@H](C)O)C(C)C)C(C)C)C(C)C
45: C=CCOc1ccc(CC(=O)O)cc1Cl
46: COCc1c(C(=O)NC2CCCCCC2)cnn1-c1nccc(-c2cc(C)sc2C)n1
47: COc1ccc(-c2ccc(CN3C(CC(C)C)C(=O)N(Cc4cn(CCC5OCCO5)nn4)CCS3(=O)=O)cc2)cc1OC (configuration not stated)
48: CCCC1C(=O)N2C(N(C)C)=Nc3ccc(C)cc3N2C1=O (configuration not stated)

Screen / compound no.	43	44	45	46	47	48
Lassa entry	-26%	5%	1%&9%	11%	-19%	-5%[17.8 µM]
MARV entry inh	u	5%	1%&5%	24%	-6%	-2%[17.8 µM]

The list goes on; it opens with the two that closed the last part.
47: COc1ccc(-c2ccc(CN3C(CC(C)C)C(=O)N(Cc4cn(CCC5OCCO5)nn4)CCS3(=O)=O)cc2)cc1OC (configuration not stated)
48: CCCC1C(=O)N2C(N(C)C)=Nc3ccc(C)cc3N2C1=O (configuration not stated)
49: Cc1ccccc1CN1[C@H](C)[C@@H](c2ccccc2)Oc2c(Cl)cccc2S1(=O)=O
50: O=S(=O)(CCc1ccccc1)c1nnnn1C1CCCCC1
51: Cc1cc(C)cc(C(=O)NCCn2cc(C(=O)N3CCSCC3)nn2)c1
52: COc1cccc([C@H]2Oc3ccc(OC)cc3C(=NO[C@H](C)CN3CCCc4nc(C)c(C)cc43)[C@H]2O)c1
53: C[C@H]1Cc2c(COc3ccccc3)nc3c(c2CO1)CN(C(=O)NCc1ccco1)CC3
54: COc1cc(=O)n2c(c1C(=O)N(C)Cc1cscn1)CCN(C(=O)c1ccc(C)cc1C)CC2

Screen / compound no.	47	48	49	50	51	52	53	54
Lassa entry	-19%	-5%[17.8 µM]	16%	0%	-6%	6%[8.59 µM]	35%[activator][8.59 µM]	-3%
MARV entry inh	-6%	-2%[17.8 µM]	18%	-20%	-10%	u	2%[8.59 µM]	-75%

55: COC(=O)C1(C)C2CC(C)C(c3ccccc32)N1C(=O)C(F)(F)F (configuration not stated)
56: CCCCCCCC1=CC2=CC(=O)C(C)(O)C(=O)C2=CN1CCCC (configuration not stated)
57: C=C1C(=O)OC2C[C@@]3(C)CCCC(C)C3=CC12 (some centres not stated)
58: C[C@@H](O)[C@H]1C(=O)N2C(C(=O)O)=C([C@H]3CCCO3)S[C@H]12
59: CCOC(=O)CN1C(=O)[C@]2(O[C@H](COc3ccccc3)CC3=CCCC32)c2c(Br)cccc21 (some centres not stated)
60: Fc1ccc(Cl)cc1-c1nc(Nc2ccncc2)c2nccnc2n1

Screen / compound no.	55	56	57	58	59	60
Lassa entry	x	8%[8.59 µM]	-17%	-8%	x	-21%
MARV entry inh	-9%[8.59 µM]	u	-26%	1%	5%[8.59 µM]	-21%

61: CC(C)[C@@H]1[C@H]2CC[C@H](C2)[C@H]1N
62: O=C1c2ccccc2CC[C@H]1CNCCc1ccc(O)cc1
63: CCOC(=O)c1c(C)[nH]c2ccc3c(c12)CN1CCc2cc(OC)ccc2[C@@H]1O3
64: COC(=O)c1cc(CNC(=O)c2cccc3ccccc23)cc(NC(=O)c2ccccc2OC)c1
65: C=CC1=C(C)C2=NC1=CC1=NC(=CC3=NC(=CC4=NC(=C2)C(C)=C4CCC(=O)O)C(CCC(=O)O)=C3C)C(C=C)=C1C.[Zn]
66: CC[C@@]1(O)C(=O)OCc2c1cc1n(c2=O)Cc2cc3c(O)cccc3nc2-1
67: COC(=O)[C@@H]1CC[C@H](C)[C@@H](c2ccc(C)cc2)N1C(=O)c1ccc(C=NO[C@@H](C)c2cc(-c3c(C)cc(C)cc3C)no2)cc1

Screen / compound no.	61	62	63	64	65	66	67
Lassa entry	2%	u	u	u	4%	u	10%[8.59 µM]
MARV entry inh	u	1%	5.6µM*	u	11%	u	6%[8.59 µM]

Single records, from the list above:
Listed for `CC(C)[C@@H]1[C@H]2CC[C@H](C2)[C@H]1N` : Lassa entry: 2%; MARV entry inh: u
Listed for `CC[C@@]1(O)C(=O)OCc2c1cc1n(c2=O)Cc2cc3c(O)cccc3nc2-1` : Lassa entry: u; MARV entry inh: u
